Compound activity deposited in PubChem by National Center for Advancing Translational Sciences (NCATS).
2A StopGo: FMDV 2A StopGo reporter, luciferase signal; AID 1159524; actives 1.2% (n = 410,000); Potency, µM (highest dose often 57.9 µM), without a hit: at the highest dose signal change, negative = less light; human cells with a luciferase reporter of 2A StopGo recoding; control for the full effect not named in the record; active = well fitted falling curve with a large enough effect; inconclusive = small, poorly fitted or top-dose-only effect; inactive = no such curve, though single readings can be large or run the other way; tested in HEK293T cells; further: on the % scale 0 is the no-effect control and ±100 the full control effect; nearly all actives have a fitted effect of over 45% in size; luciferase light after 4 h
RE007 growth inh: less growth of the S. pombe RE007 Vpr strain; S. pombe RE007 Vpr strain, BacTiter-Glo ATP luminescence, 24 h; control for the full effect not named in the record; Potency, µM (titrated, usually from 92.2 µM), inactives show at the top dose activity change, negative = less growth; actives 0.21% (n = 360,000); AID 651644; active = well fitted falling curve with a large enough effect; inconclusive = small, poorly fitted or top-dose-only effect; inactive = no such curve, though single readings can be large or run the other way;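 further: on the % scale 0 is the no-effect control and ±100 the full control effect; nearly all actives have a fitted effect of over 50% in size; the assay follows cell death caused by Vpr and the record does not say whether a fall means rescue or toxicity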
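Fission yeast RE007 carrying one integrated HIV-1 vpr copy, seeded at OD 0.01 in PMG+AL medium with 23 nL pinned compound. Grown 24 h at 30 degrees; viability read by BacTiter-Glo luminescence after 5 min.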
SARS PLpro yeast: SARS-CoV PLP inhibition in yeast | S. cerevisiae expressing SARS-CoV PLpro, growth rescue; control for the full effect not named in the record | Potency, µM (doses to about 32.9 µM), for inactives: at the top dose activity, positive = growth rescue | actives 0.19% (n = 330,000); active means well fitted rising curve with a large enough effect; inconclusive means small, poorly fitted or top-dose-only effect; inactive means no such curve, though single readings can be large or run the other way; further: 0% is about no effect; nearly all actives have a fitted effect of over 55% in size; growth read by luminescence after 48 h
Starred values were filed as active, the others as inactive; ? = inconclusive; [ ] = remark or other dose. Potency means the concentration at half of the fitted maximal effect. This is a subset; the hit share may differ from the screen's.

Structure | 2A StopGo | RE007 growth inh | SARS PLpro yeast
CC(=O)Nc1ccc(NC(=O)C(=O)NCC(c2ccco2)N2CCc3ccccc32)cc1 (configuration not stated) | ? | 2% | -1%
CC(NC(=O)COC(=O)C1CC1C)c1ccccc1 (configuration not stated) | 10% | 1% | 0%
CC1CCN(C(=O)CSc2nnc3ccccn23)CC1 | 53%[activator] | 3% | -2%
COC(=O)c1ccc(CNC(=O)Cn2cnc3c(OCc4ccccc4)ncnc32)cc1 | -14% | -9% | 1%
Cc1cccnc1NC(=O)CNC(=O)c1ccccc1 | -1% | -7% | 4%
O=C(COC(=O)CCN1C(=O)C2CC=CCC2C1=O)Nc1ccc(Cl)cc1F (configuration not stated) | -7% | 17% | 8%
CCOC(=O)c1ccc(NC(=O)c2nc[nH]c2C(=O)NCCCCNC(=O)c2[nH]cnc2C(=O)Nc2ccc(C(=O)OCC)cc2)cc1 | 0% | -19% | 0%
Cc1cccc(C(=O)O[C@@H]2[C@H](Cc3ccccc3)NS(=O)(=O)[C@H]3C[C@@H]4C=C[C@]23O4)c1 | -25% | -2% | 5%
O=C1CC2OCC=C3CN4CCC56c7cc([N+](=O)[O-])ccc7N1C5C2C3CC46 (configuration not stated) | 2% | -4% | -1%
O=C(Cn1cnc2c(NCc3ccccc3)ncnc21)NCCc1cc2ccccc2[nH]1 | -25% | 3% | 2%
Cc1ccc(S(=O)(=O)Nc2c(C)n(C)n(-c3ccccc3)c2=O)cc1C(=O)NCc1ccccc1 | 1% | -1% | -3%
CN(C)S(=O)(=O)c1cc(NC(=O)C2=COCCO2)ccc1Cl | -4% | 9% | 2%
CC(C)C(=O)C1=Cc2cccc([N+](=O)[O-])c2OC1N1CCOCC1 (configuration not stated) | ? | 9% | 6%
O=[N+]([O-])c1ccc(OCn2cncn2)cc1 | -9% | 0% | 3%
C[C@H](CO)N1C[C@H](C)[C@@H](CN(C)S(=O)(=O)c2ccc(F)cc2)Oc2c(NC(=O)NC3CCCCC3)cccc2C1=O | -9% | 1% | 0%
Cc1cccnc1NC(=O)CNC(=O)C1CCCCC1 | -9% | -7% | -3%
Cc1cccc(/N=C/c2nc(-c3ccccc3Br)oc2O)n1 | 20% | -5% | 0%
CC(=O)Nc1cccc(CNCc2cccc(NC(C)=O)c2)c1 | -2% | 3% | 1%
COc1cccc(/C=C/C(=O)Nc2ccc3c(c2)OCCO3)c1 | 19% | 34% | -5%
O=C(Cc1cccs1)N1CCN(S(=O)(=O)c2ccc(F)c(F)c2)CC1 | -9% | -16% | -4%
CC(/C=C/c1ccco1)=N\NC(=O)CNc1ccc2ccccc2c1 | 9% | -16% | -7%
CC1CCCC(NC(=O)COC(=O)c2cccnc2Cl)C1C (configuration not stated) | -7% | 14% | 0%
Cc1cc(NC(=O)Cn2cc([N+](=O)[O-])cn2)no1 | 4% | 3% | -1%
O=C(NCCc1nc(-c2ccc(F)cc2)no1)c1ccc(F)cc1 | ? | -6% | 4%
O=C(c1ccc([N+](=O)[O-])o1)N1CCCCCC1 | -14% | 0% | -12%
CC(=O)Nc1ccc(S(=O)(=O)NC(C)C(=O)OCCOc2ccc(F)cc2)cc1 (configuration not stated) | -13% | -6% | -1%
Oc1ccc(C[C@@H]2CNCCN2CCc2cc(C(F)(F)F)cc(C(F)(F)F)c2)cc1 | 0% | -10% | -12%
CCCn1c(SCC(=O)c2c(N)n(C3CC3)c(=O)[nH]c2=O)nc2cc(S(N)(=O)=O)ccc21 | 2% | -5% | 0%
COCCNC(=O)CCCn1c(=O)c2cc(OC)c(OC)cc2n(CC(=O)Nc2ccc(C)c(F)c2)c1=O | 5% | -1% | 3%
Cc1ccc(S(=O)(=O)C(C#N)c2nc3ccccc3nc2OCCO)cc1 (configuration not stated) | -12% | -11% | 1%
CC(C)c1ccc(N(C(=O)c2csnn2)C(C(=O)NC(C)(C)C)c2cccnc2)cc1 (configuration not stated) | -4% | 0% | 3%
O=C(COC(=O)c1ccccn1)NC(=O)c1ccccc1 | -4% | -10% | 3%
COC(=O)C1=C(c2ccc(F)cc2OCc2ccccc2)C[C@@H]2CC[C@H]1N2C(=O)NCc1ccccc1Cl | 0% | -2% | 1%
CC1(CCc2ccccc2)NC(=O)N(CC(=O)Nc2c(F)cccc2F)C1=O (configuration not stated) | -1% | 2% | -1%
CC[C@]12c3[nH]c4ccccc4c3CCN1C(=O)C(CC(=O)NCCN1CCOCC1)C[C@@H]2C(=O)N1CCN(C(=O)c2ccco2)CC1 (some centres not stated) | -9% | 0% | 2%
Cc1ccc(C)c(SCC(=O)NC(=O)NC2CCCC2)c1 | -11% | -22% | -12%
O=C(O)c1cccc(NC(=O)c2ccc(Cl)c(S(=O)(=O)N3CCCCCC3)c2)c1 | 0% | 1% | 2%
CN(Cc1ccc(Cl)cc1)C(=O)c1ccc(S(=O)(=O)NCc2ccco2)cc1 | 26% | -5% | -3%
NCCCn1cnc2ccccc21 | -6% | 17% | 2%
CCN(CC(=O)Nc1cc(Cl)ccc1C)C(=O)C1COc2ccccc2O1 (configuration not stated) | -8% | -3% | -3%
Cc1cc(C)cc(NC(=O)COC(=O)c2cc(C)oc2C)c1 | -6% | 3% | 0%
Cc1noc(C)c1NC(=O)Nc1ccc2c(c1)C(=O)N([C@H](C)CO)C[C@H](C)[C@@H](CN(C)C(=O)NC1CCCCC1)O2 | 8% | -9% | 1%
O=C(c1cc(Br)ccc1O)N1CCN(S(=O)(=O)Cc2ccccc2)CC1 | 8% | 21% | 3%
Cc1ccc(NC(=O)C2CCCN2C(=O)c2cccs2)cc1C (configuration not stated) | -5% | 9% | -7%
COC(=O)[C@]1(Cc2ccccc2)N[C@H](CN(C)S(=O)(=O)c2ccc(-c3ccccc3)cc2)[C@@H]2C(=O)N(C)C(=O)[C@@H]21 | -25% | 7% | 7%
COc1cc(Cl)c(C)cc1NC(=O)CSC1=NCCS1 | -22% | 5% | 0%
O=S1(=O)N=C2CCCCCN2C(c2ccc(Cl)cc2)N1 (configuration not stated) | 4% | 8% | 0%
COc1ccc([C@H]2CC(=O)C=C(c3ccc(Cl)cc3C)C2)cc1 | -23% | 11% | -5%
c1ccc(CC[C@@H]2CC[C@@H](CCc3ccccc3)N2)cc1 | -18% | -3% | 5%
N#Cc1ccc(OCC(=O)Nc2ccc(N3CCCC3)cc2)cc1 | -6% | 5% | -1%
O=C(COC(=O)c1c[nH]c(=O)[nH]c1=O)Nc1cccc([N+](=O)[O-])c1 | -12% | 10% | 0%
COC(=O)[C@]1(C)N[C@H](CN(C)C(=O)Nc2ccc(C)cc2)[C@@H]2C(=O)N(C)C(=O)[C@@H]21 | -3% | 12% | 1%
Cc1ccc(S(=O)(=O)NCc2ccccc2)cc1C(=O)NCCc1ccc(S(N)(=O)=O)cc1 | 5% | 1% | -1%
Cc1cc(Br)ccc1NC(=O)CN(C)C(=O)C1=COCCO1 | 4% | -7% | -6%
CCSc1ccc([C@@H]2[C@H]3C(=O)N(C)C(=O)[C@H]3[C@]3(C(=O)OC)CCCCN23)cc1OC | 0% | 2% | -6%
Cc1ccc(C)c(N2CCN(C(=O)CCc3nc(-c4ccc(Br)cc4)no3)CC2)c1 | 54%[activator] | 4% | -2%
COc1ccc(OC)c(C2=NOC(C(=O)NCc3cccs3)C2)c1 (configuration not stated) | 25% | 1% | 2%
COc1ccc(NC(=O)N(C)C[C@H]2Oc3ccc(NC(=O)c4ccncc4)cc3C(=O)N([C@H](C)CO)C[C@@H]2C)cc1 | -1% | 12% | 2%
CCN(C[C@H]1N[C@@](Cc2ccccc2)(C(=O)OC)[C@H]2C(=O)N(Cc3ccccc3)C(=O)[C@@H]12)S(=O)(=O)c1ccc(F)cc1 | ? | 6% | 2%
Cc1cc([N+](=O)[O-])ccc1NC(=O)c1cccc(NC(=O)C(C)C)c1 | 71%[activator] | 58% | 0%

(further entries)
Second line of a record: 2A StopGo	RE007 growth inh	SARS PLpro yeast
O=C(OCc1c(-c2ccccc2)ncc2ccccc12)c1ccc(Br)cc1
    -22%	-8%	-4%
COc1ccc(-n2nnnc2SC(C)C(=O)NC2CCCC2)cc1 (configuration not stated)
    -8%	-16%	5%
CC1(C)Cc2ccccc2C(N/N=C/c2ccc([N+](=O)[O-])cc2)=N1
    5%	-6%	0%
COCc1c(C(=O)N2CCN(CCOc3ccccc3)CC2)oc2ccccc12
    ?	1%	-4%
O=C(Nc1ccc(S(=O)(=O)N2CCCCC2c2cccnc2)cc1)c1c(F)cccc1F (configuration not stated)
    -1%	29%	0%
Cc1nc2ccc(NC(=O)[C@H](C)N3C(=O)C4CC=CCC4C3=O)cc2s1 (some centres not stated)
    -17%	10%	-4%
CCCNC(=O)C(Cc1ccc(OC)cc1)NC(=O)c1ccc(Cl)cc1 (configuration not stated)
    25%	3%	1%
Cc1c(C(=O)N2CCN(CC(=O)Nc3ccccc3Cl)CC2)oc2ccc(Br)cc12
    -30%	-5%	-5%
CCCOc1ccc(C(=O)CCC(=O)NNC(=O)c2cccs2)cc1
    -2%	-1%	0%
CCNC(=S)N1CCN(C(=O)C(Cc2ccccc2)NC(C)=O)CC1 (configuration not stated)
    10%	4%	0%
COc1ccc(N2CCN(CCS(=O)(=O)c3cc(Cl)ccc3Cl)CC2)cc1
    -21%	-15%	-1%
CCC(CO)Oc1cc(NCc2ccc(OC)cc2)c2ncn(C(C)C)c2c1 (configuration not stated)
    4%	9%	-17%
Cc1ccc(SCC(=O)Nc2ccc(N3CCOCC3)cc2)c(C)c1
    -6%	13%	1%
COc1cccc(N2CCN(C(=O)CCC(=O)c3ccc(Cl)s3)CC2)c1
    -18%	-12%	5%
C=C(NS(=O)(=O)c1ccc(C)cc1)C(=O)OC
    -17%	-4%	6%
Cc1ccc(C(=O)NNC(=O)C(NC(=O)c2cccc(C)c2)C(C)C)cc1 (configuration not stated)
    8%	0%	-5%
CC1(C)C[C@H]2C3=CCC4[C@@]5(C)CC[C@H](O)[C@@](C)(CO)C5CC[C@@]4(C)[C@]3(C)C[C@@H](O)[C@@]2(CO)[C@@H](O)[C@@H]1O (some centres not stated)
    -18%	6%	0%
NC(=O)c1ccsc1NC(=O)COC(=O)Cc1ccccc1
    ?	-2%	1%
Cn1c(SCC(=O)NC2CC2)nnc1-c1ccc(Cl)cc1
    -8%	8%	-5%
C#CCOCCOCCOCCNc1nc(N2CCN(C(=O)[C@H](CCCCN)n3cc(CN)nn3)CC2)nc(N2CCN(C(=O)[C@H](CCC(=O)O)n3cc([C@@H](N)[C@H](C)CC)nn3)CC2)n1
    -5%	2%	-2%
COc1ccccc1-c1oc2ccccc2c1C#CCCCCO
    -26%	3%	4%
CC1CC1C(=O)OCC(=O)N(C)CC(=O)Nc1ccc(F)cc1 (configuration not stated)
    -8%	3%	1%
O=C(CN1C(=O)NC2(CCCCC2)C1=O)Nc1cccc2ncccc12
    -20%	12%	-4%
CCOC(=O)C1=C(COC(=O)/C=C/c2cccc(Br)c2)NC(=O)NC1C (configuration not stated)
    -13%	9%	3%
NC(=S)/N=C/c1c(O)[nH]c(=O)[nH]c1=O
    -12%	7%	2%
CN(Cc1ccccc1)C(=O)c1nc[nH]c1C(=O)N1CCc2ccccc2C1
    -9%	11%	0%
CCN(C[C@H]1N[C@@](CC)(C(=O)OC)[C@H]2C(=O)N(Cc3ccccc3)C(=O)[C@@H]12)C(=O)COc1ccccc1
    -18%	-14%	-1%
Cc1cccc(C)c1NC(=O)CNC(=O)c1ccc2ccccc2n1
    50%[activator]	-10%	1%
Cc1ccc(N(CCC#N)C(=O)CSc2nc3ccccc3c(=O)[nH]2)cc1
    -7%	0%	1%
COC(=O)[C@@]12CCCN1[C@H](c1ccc(-c3ccc(F)cc3)c(OC)c1)[C@H]1C(=O)N(C)C(=O)[C@H]12
    -22%	0%	-2%
O=S(=O)(c1ccccc1)N1CCN=C1SCc1ccc(Cl)cc1
    1%	-5%	-6%
